Rango release inh: qHTS Assay for Inhibitors of RanGTP induced Rango (Ran-regulated importin-beta cargo) - Importin beta complex dissociation; AID 540253, 2011; Biochemical FRET Rango-importin beta, RanGTP-induced dissociation; Potency, µM (top dose mostly 46.1 µM), inactives show at the highest dose activity change, negative = inhibition; 340,000 tested, 0.071% active; active means falling FRET ratio curve, often poorly fitted, with flat reads before Ran was added; inconclusive means other falling curves, or compound fluorescence or quenching; inactive means flat or rising ratio curve;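 note: potency is the fitted concentration of half-maximal effect; % of control where 0% means no effect; nearly all actives have a fitted effect of over 45% in size; -100% = wells without RanGTP and RCC1; the record marks most hits as doubtful in a second field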
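Rango/importin beta premix (0.1/0.25 uM final), PBS + 1 mM DTT + 0.02% Tween-20 + 0.1% BSA; cpd 5 min RT; FRET pre-read; + RanGTP-RCC1 (0.6 uM Ran, 2 mM GTP, 0.2 uM RCC1); 45 min RT; FRET post-read, ex 430, em 486/530 nm.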
Rango complex inh: qHTS Assay for Inhibitors of Rango (Ran-regulated importin-beta cargo) - Importin beta complex formation; Importin subunit beta-1 (Homo sapiens), Q14974; Rango CFP/YFP FRET sensor + importin beta, 45 min; Potency, µM (titrated, usually from 92.2 µM), for inactives: top-dose inhibition of complex formation; 340,000 tested, 0.031% active; active = rising FRET ratio curve, often small or poorly fitted; inconclusive = mostly compound fluorescence or quenching in the first reads; inactive = flat curves in all reads;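 note: potency is the fitted concentration of half-maximal effect; 0% = DMSO wells and 100% = buffer wells lacking importin beta; nearly all actives have a fitted effect of over 15% in size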
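FRET biosensor Rango (snurportin 1 IBB between N-terminal EYFP and C-terminal Cerulean), 50 nM in PBS/1 mM DTT/0.02% Tween-20/0.1% BSA, preincubated 5 min RT with compound; 0.125 microM importin beta added, 45 min RT, CFP/YFP FRET ratio read.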
miR-21 reporter: qHTS Assay for Modulators of miRNAs and/orActivators of miR-21. HeLa miR-21 FLuc reporter, luciferase, 48 h. Potency, µM (series often up to 38.3 µM), inactives show top-dose reporter change, positive = more light. 340,000 tested, under 10 active. AID 2288, 2010; active = well fitted rising curve with a large enough effect; inconclusive = small, poorly fitted or top-dose-only effect; inactive = no such curve, though single readings can be large or run the other way;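 note: % of control where 0% means no effect; miR-21 action dims this reporter so a rising signal means less miR-21 action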
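HeLa cells endogenously expressing miR-21, stably carrying CMV-driven firefly luciferase with a downstream miR-21 binding site, 2000 cells/well. Titrations up to approximately 40 uM, 48 hours; luciferase luminescence read.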
GLA inh pH 4.5: qHTS Assay for Inhibitors of Human alpha-Galactosidase at pH 4.5; purified enzyme, 4-MU-alpha-Gal fluorescence, pH 4.5; 230,000 tested, under 10 active; AID 1467, 2008; activity change, negative = inhibition, % at 105 µM; inconclusive = small, poorly fitted or top-dose-only inhibition, or a rising curve; inactive = flat fitted curve, though single readings scatter; no compound was filed as active;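 note: 0% = full activity with enzyme and -100% = basal without enzyme; dose as in the result columns while the protocol names 77 µM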
Target sequence (P06280 whole entry, looked up): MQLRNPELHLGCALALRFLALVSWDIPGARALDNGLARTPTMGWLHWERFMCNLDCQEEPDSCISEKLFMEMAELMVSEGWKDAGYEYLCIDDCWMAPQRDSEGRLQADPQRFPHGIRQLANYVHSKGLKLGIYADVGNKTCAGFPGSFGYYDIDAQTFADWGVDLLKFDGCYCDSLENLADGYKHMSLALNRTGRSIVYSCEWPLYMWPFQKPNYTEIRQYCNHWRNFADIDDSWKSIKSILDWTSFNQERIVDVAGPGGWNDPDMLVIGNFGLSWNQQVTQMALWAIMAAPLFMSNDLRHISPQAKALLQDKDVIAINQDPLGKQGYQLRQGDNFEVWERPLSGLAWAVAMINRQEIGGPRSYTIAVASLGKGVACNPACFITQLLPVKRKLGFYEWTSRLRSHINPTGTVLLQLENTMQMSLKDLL
Starred values were filed as active, the others as inactive; ? = inconclusive; · = no result given. Some of the compounds tested; count on the stated rates, not on these rows.

SMILES	Rango release inh	Rango complex inh	miR-21 reporter	GLA inh pH 4.5
C=CCC1(CC=C)CCCN1C(=O)c1cc(COc2cccc(OC)c2)on1	-10%	-1.6%	11%	·
Cn1c(N)c(C(=O)COC(=O)Cc2ccc(F)cc2)c(=O)n(C)c1=O	-3%	-1.4%	·	·
CC(Sc1nncn1C)C(=O)NCc1ccc2c(c1)OCO2 (stereo not given)	2%	0.1%	0%	3
CC(C)(C)NC(=O)c1ccccc1-c1nc2ccccc2s1	15%	-1.9%	-2%	3
Cc1nnc(NC(=O)c2cccc(S(=O)(=O)N3CC(c4ccccc4)CC3=O)c2)s1 (stereo not given)	-18%	0.4%	0%	15
CCCC(=O)Nc1ccc(S(=O)(=O)Nc2cc(OC)ncn2)cc1	1%	4.3%	-7%	·
C/C(NCc1cccnc1)=C(\C#N)C(=O)NCc1ccccc1	-5%	-2.6%	-21%	-4
Cc1cccc(C(=O)NC(=S)Nc2ccccc2C(F)(F)F)c1	6%	-1.6%	-23%	-3
COc1ccc(N(CC(=O)N/N=C(\C)c2ccc(C)cc2)S(=O)(=O)c2ccccc2)cc1	1%	-3.1%	0%	·
O=C1NCCCc2c1no[n+]2[O-]	5%	-7.2%	-3%	0
COc1ccc(OC)c(-n2c(=S)[nH]c3cc(C(=O)N4CCC(C(N)=O)CC4)ccc3c2=O)c1	18%	-5.4%	0%	-3
Cc1ccc(C)c(OCC(O)CNC2CCCC2)c1 (stereo not given)	3%	?	-2%	·
CCc1ccccc1NC(=O)C(C)n1nc([N+](=O)[O-])c(Br)c1C (stereo not given)	-12%	2.4%	-2%	-1
Cc1nn(-c2ccccc2)cc1/C=N/NC(N)=S	-4%	-0.9%	-24%	-5
Cc1ccc(CNC(=O)c2ccc(S(=O)(=O)N3CCCCC3)cc2)cc1	-17%	-3.2%	·	·
O=S(=O)(NCCC1=CCCCC1)c1c(Cl)cccc1Cl	4%	?	·	·
CCCCn1c(N)c(N(CC)C(=O)c2ccc(Cl)c([N+](=O)[O-])c2)c(=O)[nH]c1=O	3%	1.5%	-1%	·
Cc1nc([N+](=O)[O-])c(Sc2nc3ccccc3[nH]2)n1Cc1ccccc1	1%	-7.6%	?	-14
CC(=O)Nc1ccc(NC(=O)CSc2ncnc3sc(C)c(C)c23)cc1	23%	-2.5%	-3%	·
Cc1cccnc1NC(=O)CNC(=O)c1cccs1	18%	5.1%	·	·

Of the compounds above, five have a halogen.
SMILES	Rango release inh	Rango complex inh	miR-21 reporter	GLA inh pH 4.5
Cn1c(N)c(C(=O)COC(=O)Cc2ccc(F)cc2)c(=O)n(C)c1=O	-3%	-1.4%	·	·
Cc1cccc(C(=O)NC(=S)Nc2ccccc2C(F)(F)F)c1	6%	-1.6%	-23%	-3
CCc1ccccc1NC(=O)C(C)n1nc([N+](=O)[O-])c(Br)c1C (stereo not given)	-12%	2.4%	-2%	-1
O=S(=O)(NCCC1=CCCCC1)c1c(Cl)cccc1Cl	4%	?	·	·
CCCCn1c(N)c(N(CC)C(=O)c2ccc(Cl)c([N+](=O)[O-])c2)c(=O)[nH]c1=O	3%	1.5%	-1%	·

Continued:
SMILES	Rango release inh	Rango complex inh	miR-21 reporter	GLA inh pH 4.5
O=C1C2C3C=CC(C3)C2C(=O)N1CN(Cc1ccccc1)CN1C(=O)C2C3C=CC(C3)C2C1=O (stereo not given)	-2%	5.8%	2%	-6
COc1ccc(CNC(=O)CN2C(=O)CCSc3ccc(S(=O)(=O)N4CCCC4)cc32)cc1	12%	-3.3%	0%	·
COC(=O)CSc1cnc2ccccc2n1	-16%	-0.5%	-5%	3
O=C(CO/N=C/c1ccc(OC(F)F)cc1)NC1CCCC1	-4%	-1.8%	-9%	1
CC(=O)Nc1ccccc1C(=O)C(=O)Nc1ccc(C)c(F)c1	19%	2.6%	-66%	0
Cc1ccc(NC(=O)CCCN2C(=O)c3cccc4cccc(c34)C2=O)cc1	12%	-4.4%	-10%	5
C=CCc1cc(C=O)cc(OCC)c1O	-5%	-1.4%	-2%	-7
c1ccc(-c2nc(-n3nc4ccccc4n3)nc3ccccc23)cc1	13%	3.3%	0%	-5
CC(OC(=O)c1ccccc1Oc1ccccc1)C(=O)NC1CC1 (stereo not given)	5%	-3.3%	1%	4
CC1=CC=CN2CC(O)CN=C12 (stereo not given)	-5%	-0.3%	-2%	1
CC(C)CC(=O)Nc1ccc(N2CCOCC2)cc1	7%	-0.3%	-18%	-6
Cc1ccccc1/C=C1\Sc2ccc(C(=O)N3CCN(c4ccccn4)CC3)cc2N(C)C1=O	8%	-1.8%	-1%	·
Cc1ccc(-c2nc(NC(=O)c3nn(C)cc3[N+](=O)[O-])sc2C)cc1	2%	0.9%	?	2
COc1ccc(-c2cc(C(=O)OCC(=O)N3CCCC3)c3ccccc3n2)cc1	-7%	5.3%	0%	-4
NC(=O)c1cc(C(=O)c2ccccc2Cl)c[nH]1	7%	1.5%	2%	8
O=C(NCc1ccccn1)C(=O)Nc1nc(C23CC4CC(CC(C4)C2)C3)cs1	5%	1.3%	-1%	-1
COc1cc(OC)cc(C(=O)NCC(=O)OCC(=O)NCc2ccco2)c1	7%	-3.5%	·	·
Cc1cccc(OC(C)C(=O)NCc2ccc(S(N)(=O)=O)cc2)c1 (stereo not given)	-9%	2.5%	-3%	1
COc1ccc(S(=O)(=O)N2CCNCC2)cc1OC	-3%	-1.9%	1%	1
CC(C)OCC1CO1 (stereo not given)	-7%	0.8%	·	·
CC(C)Cc1nnc(NC(=O)c2ccc([N+](=O)[O-])cc2)s1	0%	-0.6%	-23%	-11
O=C(c1cc2ccccc2oc1=O)N(Cc1ccco1)Cc1cccs1	-3%	5.2%	-6%	-8
COc1ccc(S(=O)(=O)Nc2noc3ccccc23)cc1	6%	-3.5%	-3%	·
CC(C)CCNc1nc(N2CCCC2)c2c(c1C#N)CCN(C)C2	?	?	27%	5
COc1ccc(NC(=O)CCC(=O)N2CCN(S(=O)(=O)c3ccc(C)cc3)CC2)c(OC)c1	0%	1.9%	·	·
C[C@H](CO)N1C[C@H](C)[C@@H](CN(C)C(=O)Nc2ccccc2)Oc2ccc(NC(=O)C3CCCCC3)cc2C1=O	-26%	1.6%	·	·
CCCCCCCC(=O)NNC(=O)CCC(=O)O	-7%	-2.1%	-5%	9
COc1cccc(/C=N/NC(=O)CCNc2n[nH]c(=O)[nH]c2=O)c1OC	13%	9.4%	-1%	9
O=C(Nc1ccc(N2CCOCC2)c(Cl)c1)c1ccc(S(=O)(=O)N2CCOCC2)cc1	-3%	0.2%	12%	·
Nc1ncnc2c1ncn2[C@@H]1O[C@H](CNS(=O)(=O)c2cc3ccccc3s2)[C@@H](O)[C@H]1O	5%	3.1%	·	·
CS(=O)(=O)N(CC(=O)N1CCCC1)c1ccc(Cl)c(Cl)c1	0%	?	-5%	1
COc1cc(C(=O)OCC(=O)c2cc(C)n(CC3CCCO3)c2C)cc(OC)c1C (stereo not given)	-8%	-3.0%	·	·
CCNC(=S)N1CCc2ccccc2C1	0%	1.7%	-1%	-14
CC(NC(=O)c1ccccc1F)c1nnc(SCC(=O)Nc2nccs2)n1C (stereo not given)	12%	-1.2%	6%	·
COc1ccc(S(=O)(=O)O/N=C2\CCSc3ccc(C)cc32)cc1	-13%	4.3%	-3%	7
O=C(NCc1nnc(SCC(=O)N2CCCCC2)o1)c1c(F)cccc1F	-11%	0.3%	-1%	·
C=C(C)Cn1c(Sc2nnc(C)s2)nc2c1c(=O)[nH]c(=O)n2C	-2%	5.5%	-29%	-2
CCOc1ccc(N=C(NN)c2ccc3ccccc3n2)cc1	4%	2.7%	12%	-9
CCOc1c(Br)cc(Br)cc1/C=C1\SC(N)=NC1=O	0%	-2.7%	-1%	·
CCOC(=O)Cn1c(=O)oc2cc(S(=O)(=O)Nc3cccc(C)c3)ccc21	?	0.9%	2%	-7
CC(=O)c1ccc(N2CCCC2)c(F)c1	·	·	-24%	-3
COc1cccc(/C=N/NC(=O)C(=O)NCc2cccnc2)c1O	14%	0.5%	-5%	-14
O=C(Nc1ccc(NC(=S)NC(=O)c2ccccc2F)cc1)c1cccs1	-15%	0.1%	7%	-7
CCOC(=O)c1c(C)[nH]c(C(=O)NCc2ccccc2OC)c1C	·	·	-60%	5
COc1ccc(Nc2cc(Nc3cccc(OC)c3)ncn2)cc1	3%	-1.5%	-72%	·
CCCOC1CCCN(C(=O)c2ccc(OC3CCN(C(=O)COC)CC3)cc2)C1 (stereo not given)	5%	-0.1%	-11%	·
CC1CCN(c2nc(-c3ccccc3O)nc3ccccc23)CC1	5%	-0.4%	1%	-6
CCOCCCNC(=O)C(NC(=O)Cc1cccs1)c1ccccc1 (stereo not given)	-13%	0.8%	-1%	6
COc1ccc(C)cc1N(C(=O)c1ccc(C#N)cc1)C1=NC(C)(C)CS1	-3%	-2.7%	-1%	·
CC12CC3CC(C)(C1)CC(C(=O)NCc1cccnc1)(C3)C2	-5%	3.7%	-2%	·
(cont.)
SMILES	Rango release inh	Rango complex inh	miR-21 reporter	GLA inh pH 4.5
CC1(C)CC(=O)C2=C(C1)OC(N)=C(C#N)C2c1ccsc1 (stereo not given)	7%	5.4%	-8%	-1
NS(=O)(=O)c1ccc(NC(=O)COC(=O)c2cc3ccccc3oc2=O)cc1	3%	2.9%	-18%	15
O=C(NC1CCCCCC1)C1CCN(S(=O)(=O)N2CCC3(CC2)OCCO3)CC1	-2%	0.8%	-1%	2
COc1cc(NC(=O)c2cc(OC)c(OC)c(OC)c2)ccc1NC(=O)c1cccs1	1%	-1.4%	1%	·
CCCCC(=O)N1CCN(c2nc3ccc(F)cc3s2)CC1	-10%	1.9%	14%	·
COc1ccc2nc(-c3ccccc3)cc(C(=O)OCC(=O)N3CCCCC3)c2c1	?	?	·	·
CCOC(=O)c1sc(=S)n(C)c1NC(=O)c1ccccc1	4%	-2.4%	-2%	2
COc1cc(OC)cc(C(=O)OC/C(O)=C(\C#N)c2nc3ccccc3[nH]2)c1	-16%	3.0%	13%	-10
Cc1ccc(CN(C)C(=O)c2cccc(S(=O)(=O)N3CCN(c4ccccc4)CC3)c2)cc1	-1%	-2.0%	·	·
Cc1cc(C)c2c(=O)n(CC(=O)Nc3cccc(F)c3)sc2n1	-6%	0.6%	29%	-4
COc1ccccc1C1SCCN1C(=O)c1ccc([N+](=O)[O-])cc1 (stereo not given)	-7%	-1.2%	-1%	-13
Nc1cc(=O)[nH]c(SCC(=O)Nc2ncc(C(F)(F)F)cc2Cl)n1	-6%	0.3%	3%	6
COc1ccccc1NC(=O)N1CCCC1C(=O)Nc1ccc2c(c1)OCO2 (stereo not given)	24%	-1.4%	-4%	-2
CCOC(=O)Nc1ccc2c(c1)nc1n2CCN(CCOC)C1	-9%	3.3%	-34%	·
CC1(C)O[C@@H]2[C@H](O1)[C@@H](CO)O[C@H]2n1cc(Br)c(=O)[nH]c1=O	17%	0.1%	·	·
O=S(=O)(c1ccc(NC(=S)NCCC(c2ccccc2)c2ccccc2)cc1)N1CCOCC1	20%	4.7%	?	-10
CCCc1cc(=O)[nH]c(SCC(=O)c2c(N)n(C)c(=O)n(C)c2=O)n1	10%	1.8%	-1%	1
Cn1c(O)c(N=NC(=O)CNC(=O)/C=C/c2ccccc2)c2ccccc21	-13%	1.9%	1%	·
COc1cc2c(cc1OC)C(c1cccs1)CC(=O)N2 (stereo not given)	-3%	-3.1%	-12%	4
Cc1ccc(-c2nnn(CC(=O)N3CCC(C)CC3)n2)o1	-1%	-1.6%	-24%	-4
C=CCNc1nc(N)c([N+](=O)[O-])c(NC2CCCCC2)n1	1%	4.1%	-32%	·
Cc1cc(O)c(C(=O)/C=C/c2cccc([N+](=O)[O-])c2)c(=O)o1	4%	4.5%	-5%	-6
Cc1nn(C)c(Oc2ccccc2)c1[N+](=O)[O-]	2%	1.7%	-3%	3
Cc1ncoc1C(=O)Nc1cccc(Cl)c1C	0%	4.7%	-32%	6
Cc1ccc2c(c1)sc(-c1ccc(N(C)C)cc1)[n+]2C	?	?	14%	·
